From PubChem
Menin MLL FP FL: displaces fluorescein MLL peptide from human menin. FP activity change, % at 61.4 µM. Fluorescence polarization, fluorescein-MLL peptide displacement from menin. 290,000 tested, under 10 active. AID 1766; inconclusive = falling polarisation curve, or a change in total fluorescence; inactive = total fluorescence flat and polarisation flat or rising; no compound was filed as active; the % refers to the polarisation; negative = inhibition;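 also: % of control where 0% means no effect; inhibitors lower the polarisation; unlabelled MLL peptide was the positive control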
Sfp PPTase inh: inhibitors of Bacillus subtilis Sfp phosphopantetheinyl transferase | Q9F4F7 | Biochemical Sfp PPTase activity, qHTS | Potency, µM, inactives show max response, negative = inhibition, hits mostly inhibitors | 310,000 compounds, 3.5% hits; active = well fitted inhibition curve with a large enough effect; inconclusive = small, poorly fitted or top-dose-only effect, or another doubt; inactive = no such curve, though single readings can be large or run the other way;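 also: the enzyme is Sfp with the accession as filed and its product quenches rhodamine fluorescence; potency is read from the fitted curve at half-maximal effect; 0% = enzyme reaction without inhibitor and -100% = no enzyme wells; top concentration of the series not given in the record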
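Fluorescence-quenching assay with 15 nM Sfp, 5 uM rhodamine-CoA and 12.5 uM BHQ-2-labelled ybbR peptide in pH 7.6 Hepes/MgCl2 buffer. Enzyme was pre-incubated with compound for 15 min at room temperature. Rate was taken from the 30-min fluorescence change (525/598 nm).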
An asterisk follows results filed as active; u = inconclusive; & = joins results of further samples; [ ] = another dose, or the depositor's remark. This is a subset; the hit share may differ from the screen's.

nr | SMILES | Menin MLL FP FL | Sfp PPTase inh
1 | CCCNC(=O)OC[C@H]1O[C@H](CCO/N=C/C[C@@H]2C=C[C@H](OC(C)=O)[C@@H](COC(C)=O)O2)C=C[C@@H]1Oc1ccc(OC)cc1 | -2.2 | 8%
2 | CC(C)C[C@@H](N)C(=O)O | -1.3 | -7%
3 | CCCCC1=NC2(CCCC2)C(=O)N1Cc1ccc(-c2ccccc2-c2nn[nH]n2)cc1 | -3.1&7.2 | 14%&7%
4 | COc1cccc(C2/C(=C(\O)c3c(C)nc4c(C)cccn34)C(=O)C(=O)N2CCCN(C)C)c1OC (stereo not given) | -1.8 | 3%
5 | CC(N)=NCCC[C@H](N)C(=O)O | u | u
6 | Cc1noc(C)c1-c1ccc2ncnc(NCc3ccc(C(F)(F)F)o3)c2c1 | -0.6 | 3%
7 | CC[C@H](C)[C@H](NC(=O)[C@H](CO)NC(=O)[C@H](CC(C)C)NC(=O)[C@H](CO)NC(=O)[C@@H]1CCCN1C(=O)[C@H](CC(N)=O)NC(=O)[C@@H](N)CC(=O)O)C(=O)N[C@@H](CC(=O)O)C(=O)N[C@@H](CC(C)C)C(=O)N[C@H](C(=O)N[C@@H](Cc1ccccc1)C(=O)N[C@@H](Cc1cnc[nH]1)C(=O)N[C@@H](CC(C)C)C(=O)N[C@@H](CC(C)C)C(=O)N[C@@H](CCCNC(=N)N)C(=O)N[C@H](C(=O)N[C@@H](CC(C)C)C(=O)N[C@@H](CC(C)C)C(=O)N[C@@H](CCC(=O)O)C(=O)N[C@@H](CC(C)C)C(=O)N[C@@H](C)C(=O)N[C@@H](CCCNC(=N)N)C(=O)N[C@H](C(=O)N[C@@H](CCC(N)=O)C(=O)N[C@@H](CO)C(=O)N[C@@H](CCC(N)=O)C(=O)N[C@@H](CCCNC(=N)N)C(=O)N[C@@H](CCC(=O)O)C(=O)N[C@@H](CCCNC(=N)N)C(=O)N[C@@H](C)C(=O)N[C@@H](CCC(=O)O)C(=O)N[C@@H](CCC(N)=O)C(=O)N[C@@H](CC(N)=O)C(=O)N[C@@H](CCCNC(=N)N)C(=O)N[C@H](C(=O)N[C@H](C(=O)N[C@@H](Cc1ccccc1)C(=O)N[C@@H](CC(=O)O)C(=O)N[C@@H](CO)C(=O)N[C@H](C(N)=O)C(C)C)[C@@H](C)CC)[C@@H](C)CC)[C@@H](C)O)[C@@H](C)O)[C@@H](C)O | -3.5 | -1%
8 | COC(=O)NC(c1ccccc1)C(C#N)C(=O)OC (stereo not given) | -5.6[11.7 µM] | 4%
9 | COC(=O)c1ccc(C(NC(=O)OCc2ccccc2)/C(=C/[C@@H](C)C(=O)N[C@@H](CO)Cc2ccccc2)c2cccnc2)cc1 (stereo not given in full) | -1.8 | 10%
10 | COc1ccc(C2=Nn3c(nnc3-c3ccc(OC)c(OC)c3)SC2)c(OC)c1 | -4.7 | 3%
11 | S=C=Nc1ccc(N=C=S)cc1 | -1.4 | 20%
12 | Cc1cc(C)n2nc(SCc3cc(=O)oc4cc(C)c(C)cc34)nc2n1 | 3.0 | -1%
13 | COCCn1c(-c2cccs2)nc2c(c(=O)c3ccccc3n2C)c1=O | 6.4 | 7%
14 | CCCCC(=O)Nc1sc2c(c1C(=O)OCC)CCC(C=O)=C2Cl | u | u
15 | CCn1c2ccccc2c2cc(CN3CCN(S(=O)(=O)CC)CC3)ccc21 | 0.3 | u
16 | CCC/C=C1/CCCOC(C(=O)NCC2CC2)(C(F)(F)F)C1 (stereo not given) | -5.2 | 10%
17 | CN1C=CC(=C2C=CN(C)C=C2)C=C1 | u | -11%
18 | S=C1NC=NC2N=CNC12 (stereo not given) | 5.6 | 14µM*
19 | Cc1ccc(CN2C(=O)C[C@@H](NS(=O)(=O)c3ccc4ccccc4c3)C/C=C\C2c2ccc(C)cc2)cc1 (stereo not given in full) | 0.3 | -19%
20 | Cc1ccccc1Nc1oc(-c2ccccc2)nc1-c1cccc2ccccc12 | 1.6 | 0%
21 | COc1ccccc1/C=N/N1C(=O)C(CC(=O)Nc2ccc([N+](=O)[O-])cc2OC)SC1=Nc1cccc(C)c1C (stereo not given) | 1.4 | -4%
22 | CC(=O)c1ccc(C2C=CC(O)C(CO)O2)cc1 (stereo not given) | -4.3[11.7 µM] | 6%
23 | C=CCNC(=O)N1CCc2nc(CCCC)c3c(c2C1)CO[C@@H](C)C3 | -2.3[11.7 µM] | 0%
24 | OC[C@@H](O)C(O)[C@H](O)[C@H](O)CO (stereo not given in full) | -2.1 | 12%
25 | CC1C=C[C@@H]2[C@H](C1)C(=O)N(Cc1ccccc1)[C@H]2c1ccccc1Br (stereo not given in full) | -0.1 | -15%
26 | CC1OC(O[C@H]2CC[C@]3(C)C4C=C[C@]56OC[C@@]7(CC[C@@H](C)[C@H](C)C75)[C@H](O)C[C@@]6(C)[C@]4(C)CC[C@H]3C2(C)C)C(OC2OC(CO)C(O)C(O)C2OC2OCC(O)C(O)C2O)C(O)C1O (stereo not given in full) | 2.1 | 89µM*
27 | CCc1nn2c(=O)cc(N3CCN(c4cc(C)nc5ccccc45)CC3)nc2s1 | -2.4 | 11%
28 | Cc1cc(C)nc(N2CCN(c3nc(C)cc(C)n3)CC2)n1 | -1.9 | 9%
29 | O=C(NCCN1CCOCC1)C1(C(F)(F)F)C/C(=C\CCO)CCCO1 (stereo not given) | 2.3 | -2%
30 | C=C1CC2COC(=O)C2(Cc2ccc3ccccc3c2)C1 (stereo not given) | 0.9 | -6%
31 | Cc1ccc2cc(CN(Cc3cccs3)Cc3nnnn3C(C)(C)C)c3nnnn3c2c1 | 3.2 | 19%
32 | CC(C)(C)[C@@H](O)C(Cc1ccc(Cl)cc1)n1cncn1 (stereo not given in full) | u | 6%
33 | COC(=O)[C@H]1C[C@@H]2CC[C@@H](O)C[C@@H]2N1Cc1c(F)cccc1Cl | 5.0 | -1%
34 | C#CCCCO/N=C1/C[C@@H](O)[C@@H](O)[C@@H]2[C@@H]3C(=O)N(Cc4ccccc4)C(=O)[C@H]3CC[C@H]12 | -3.4[11.7 µM] | 13%
35 | CCCCCCOC(=O)c1cccnc1 | 2.3 | 11%
36 | O=C(c1cccs1)[C@@H]1[C@@H]2C(=O)N(Cc3ccc4c(c3)OCO4)C(=O)[C@@H]2C2c3ccccc3C=CN21 (stereo not given in full) | u | -3%
37 | C/C(=N\NC(=O)Cc1c(C)[nH][nH]c1=O)c1ccc2ccccc2c1 | 0.6 | -26%
38 | COc1cc(NC(=O)c2cc(-c3cccnc3)nc3ccc(C)cc23)c(OC)cc1Cl | -1.2 | 11%
39 | COc1cccc(/C(O)=C2/C(=O)C(=O)N(CCCN(C)C)C2c2cccc(Cl)c2)c1 (stereo not given) | 1.4 | 4%
40 | CC1=NN(c2ccccc2)C(=O)/C1=C/c1cc2cc(C)ccc2nc1N1CCCCC1 | 1.0 | -24%
41 | C=CC1=C2C=C(C3CC3)N(Cc3ccccc3)C=C2C(=O)C(C)(OC(=O)c2ccco2)C1=O (stereo not given) | 0.3[11.7 µM] | 15%
42 | COc1cccc(CN2CCNC(=O)C2CC(=O)N(C)CCc2ccccn2)c1OC (stereo not given) | 0.7 | 8%
43 | COC(=O)C1=C(C)NC(C)=C(C(=O)OC(C)C)[C@H]1c1cccc2nonc12 | -4.3[24.8 µM] | 7%
44 | CN[C@H]1CCc2cc(OC)c(OC)c(OC)c2-c2ccc(N[C@@H]3CCCCNC3=O)c(=O)cc21 | -3.1 | 2%
45 | COc1c(O[C@H]2O[C@@H](CO)[C@@H](O)[C@@H](O)[C@@H]2O)cc2c(c1OC)-c1ccc(SC)c(=O)cc1[C@H](NC(C)=O)CC2 | -1.2[24.8 µM] | 29%
46 | CCSc1nc(N)c2c3c(sc2n1)CN(C)CC3 | 1.6 | 0%
47 | Cc1ccc2nc3nc(NCC4CCCO4)c(C(=O)NC4CCCCC4)cc3c(=O)n2c1 (stereo not given) | -1.5 | -8%
48 | CCOc1ccc(/C=C2\N=C(c3cccs3)OC2=O)cc1OC | 5.6 | 10%

Whole records as entered above.
Profile of COc1cccc(CN2CCNC(=O)C2CC(=O)N(C)CCc2ccccn2)c1OC (stereo not given) = Menin MLL FP FL: 0.7; Sfp PPTase inh: 8%
Profile of CN[C@H]1CCc2cc(OC)c(OC)c(OC)c2-c2ccc(N[C@@H]3CCCCNC3=O)c(=O)cc21 = Menin MLL FP FL: -3.1; Sfp PPTase inh: 2%

(more compounds)
nr | SMILES | Menin MLL FP FL | Sfp PPTase inh
49 | CC(C)c1ccc(/C=C/C(=O)NC2=NCCS2)cc1 | -3.0 | 5%
50 | COC/C=C/C1=CC2=CC(=O)C(C)(OC(=O)c3cnc4ccccc4n3)C(=O)C2=CN1c1cccc(C#N)c1 (stereo not given) | -7.0[11.7 µM] | -7%
51 | C#CCOc1ccc(C(=O)N(C)c2ccccc2I)cc1 | -0.1 | 20%
52 | CCN1C(=O)[C@H]2[C@H]3[C@H](O)[C@H](O)C/C(=N/O[C@@H](C)CN4CCCc5nc(C)c(C)cc54)[C@@H]3CC[C@@H]2C1=O | -4.4[11.7 µM] | 4%
53 | CCc1cc2c(=O)c(-c3nc4ccccc4n3C)c(C)oc2c(CN2CCN(C)CC2)c1O | 5.1 | 3%
54 | C=C1C[C@]23CC[C@H]4C(CO)(CO)C[C@@H](O)C[C@@]4(C)[C@@H]2CC[C@H]1C3 | 0.9 | 2%
55 | CSCC[C@H](NC(=O)[C@H](CC(C)C)NC(=O)[C@@H]1CCCN1C(=O)[C@H](Cc1ccccc1)NC(=O)[C@H](Cc1ccccc1)NC(=O)[C@@H]1CCC(=O)N1)C(N)=O | 3.8 | -17%
56 | CC(C)CN1CCC(=O)N(C(CSc2ccc(Br)cc2)c2ccccc2)CC1 (stereo not given) | 3.5 | -2%
57 | CC(C)n1nc(C(=O)N2CCN(S(=O)(=O)c3cccs3)CC2)c2ccccc2c1=O | 1.3 | 10%
58 | COc1ccc(OC2C=CC(C#Cc3ccc(Br)cc3)OC2CO)c(C(C)(C)C)c1 (stereo not given) | 1.5[11.7 µM] | 20%
59 | C/C1=C2N=C(/C=C3N=C(/C(C)=C4\[N-]C(C)(C5N=C1C(C)(CCC(=O)NCC(C)OP(=O)([O-])O[C@H]1C(O)C(n6cnc7cc(C)c(C)cc76)O[C@@H]1CO)C5CC(N)=O)C(C)(CC(N)=O)C4CCC(N)=O)C(C)(CC(N)=O)C\3CCC(N)=O)C(C)(C)C/2CCC(N)=O.[CH2-]C1OC(n2cnc3c(N)ncnc32)C(O)C1O.[Co] (stereo not given in full) | -1.2 | 12%
60 | CCCCCCCC1=Cc2ccc(F)cc2C(C(C(=O)OC)C(=O)OC)N1C(=O)OC (stereo not given) | -1.6 | 0%&13%

Sorted by heavy-atom count (ascending): part of the list above.
nr | SMILES | Menin MLL FP FL | Sfp PPTase inh
49 | CC(C)c1ccc(/C=C/C(=O)NC2=NCCS2)cc1 | -3.0 | 5%
57 | CC(C)n1nc(C(=O)N2CCN(S(=O)(=O)c3cccs3)CC2)c2ccccc2c1=O | 1.3 | 10%
59 | C/C1=C2N=C(/C=C3N=C(/C(C)=C4\[N-]C(C)(C5N=C1C(C)(CCC(=O)NCC(C)OP(=O)([O-])O[C@H]1C(O)C(n6cnc7cc(C)c(C)cc76)O[C@@H]1CO)C5CC(N)=O)C(C)(CC(N)=O)C4CCC(N)=O)C(C)(CC(N)=O)C\3CCC(N)=O)C(C)(C)C/2CCC(N)=O.[CH2-]C1OC(n2cnc3c(N)ncnc32)C(O)C1O.[Co] (stereo not given in full) | -1.2 | 12%

The list continues:
nr | SMILES | Menin MLL FP FL | Sfp PPTase inh
61 | O=C(O)CC1NC(=O)N(c2ccccc2)C1=O (stereo not given) | 6.1 | 19%
62 | OC(CNC1CCCCC1)CN1CCN(CC(O)CNC2CCCCC2)CC1 (stereo not given) | 1.7 | 15%
63 | O=C(Cc1ccc(Nc2nc(=S)[nH]c3ccccc23)cc1)NC1CCCCC1 | 6.7 | 22%
64 | COc1cc(OC)c2c(c1C(CCN1CCCCC1)c1ccc(N(C)C)cc1)OC(=O)CC2c1ccc(N(C)C)cc1 (stereo not given) | -5.5 | -2%
65 | COc1ccc(CSc2nnc3n(C)c(=O)c4c5c(sc4n23)CCCC5)cc1 | -1.4 | -5%
66 | Fc1ccc([C@H]2CCNC[C@H]2COc2ccc3c(c2)OCO3)cc1 | -4.2 | -21%
67 | CS(=O)(=O)c1nc(-c2ccco2)cc(C(F)(F)F)n1 | -1.1 | -10%
68 | COC(=O)C#CC(=O)OC | -0.2 | 15%
69 | C#C[C@]1(O)CC[C@H]2[C@H]3CCC4=Cc5oncc5C[C@]4(C)[C@@H]3CC[C@]21C | 11 | -22%

2 compounds drawn at random from the list so far:
nr | SMILES | Menin MLL FP FL | Sfp PPTase inh
25 | CC1C=C[C@@H]2[C@H](C1)C(=O)N(Cc1ccccc1)[C@H]2c1ccccc1Br (stereo not given in full) | -0.1 | -15%
4 | COc1cccc(C2/C(=C(\O)c3c(C)nc4c(C)cccn34)C(=O)C(=O)N2CCCN(C)C)c1OC (stereo not given) | -1.8 | 3%
